Source: PubChem BioAssay (National Center for Advancing Translational Sciences (NCATS))
gsp antag: antagonizes gsp, the McCune-Albright syndrome mutation. gsp-mutant cells, cAMP HTRF, 30 min; control for the full effect not named in the record. Potency, µM (top dose mostly 76.9 µM), without a hit: at the highest dose activity change, negative = inhibition, usual class: inhibitors. actives 0.4% (n = 340,000). AID 624288; active = falling curve of any shape with a large fitted effect; inconclusive = falling curve, mostly with a smaller effect; inactive = flat or rising curve; cell line not stated here;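 note: intracellular cAMP measured with PDE inhibitor Ro 20-1724 present during compound exposure; potency is the fitted concentration of half-maximal effect; % is set by controls: 0 for no effect and ±100 for the full control effect; nearly all actives have a fitted effect of over 65% in size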
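Cells in G418 medium, seeded 16-24 h, 37C; buffer exchange to DPBS + 1 mM CaCl2, 0.5 mM MgCl2, 0.05% BSA; cpds in DMSO + […] (300 uM stock), 30 min 37C; HTRF cAMP detection.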
ClpP mod: qHTS Assay for Activators of ClpP | AID 651965, 2013 | purified B. subtilis ClpP, FRET peptide cleavage, 20 min | Potency, µM (titrated, usually from 57.5 µM), for inactives: at the highest dose activity change, negative = active | ATP-dependent Clp protease proteolytic subunit (Bacillus subtilis (strain 168)), P80244 | actives 1.9% (n = 340,000); active = well fitted falling curve with a large enough effect; inconclusive = small, poorly fitted or top-dose-only effect; inactive = no such curve, though single readings can be large or run the other way; note: potency is the fitted concentration of half-maximal effect; the source files actives as falling curves though it sought activators and does not explain the sign; nearly all actives have a fitted effect of over 65% in size; many hits overshoot -100%
Target sequence (P80244 whole entry, looked up): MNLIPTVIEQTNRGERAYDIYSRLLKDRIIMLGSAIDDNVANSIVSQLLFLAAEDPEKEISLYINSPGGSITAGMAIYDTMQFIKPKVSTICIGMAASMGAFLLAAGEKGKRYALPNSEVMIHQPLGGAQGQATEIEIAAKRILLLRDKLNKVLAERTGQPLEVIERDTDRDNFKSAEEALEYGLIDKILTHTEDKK
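Buffer: 100 mM Tris/HCl pH8, 100 mM KCl, 0.05% low protease BSA, 2.5% glycerol, 0.01% Tween-20. ClpP 10 microg/mL final; 20 min RT; delta FRET normalized to ADEP and DMSO controls.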
gsp ag: gsp mutant agonism; gsp mutant cells, cAMP HTRF, 30 min; control for the full effect not named in the record; Potency, µM (series often up to 76.9 µM), without a hit: at the top dose activation (cAMP increase), hits mostly activators; AID 624287; actives 0.13% (n = 340,000); active = well fitted activation curve with a large enough effect; inconclusive = small, poorly fitted or top-dose-only effect, or another doubt; inactive = no such curve, though single readings can be large or run the other way; cell line not stated here;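 note: phosphodiesterase inhibitor Ro 20-1724 added with compounds to block cAMP breakdown; potency is the fitted concentration of half-maximal effect; nearly all actives have a fitted effect of over 60% in size; about a fifth of the inactives were tested at one dose only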
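Cells stably selected in G418 were plated at 2000/well, grown 16-24 hr, then given compounds in DMSO with the PDE inhibitor […] (300 uM solution added) for 30 min at 37C; cAMP was read by HTRF.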
TRPV1 PAM: potentiators of human vanilloid receptor 1 (TRPV1); Q8NER1; TRPV1-expressing cells, Fluo-8 calcium influx, capsaicin EC20 potentiation; host cell line not named in the record; control for the full effect not named in the record; potentiation, % at 8.33 µM; actives 0.02% (n = 320,000); AID 540277; active means potentiation above 80%; inconclusive means 30% to 80%; inactive means below 30%; note: 0% is about no effect
Target sequence (Q8NER1 whole entry, looked up): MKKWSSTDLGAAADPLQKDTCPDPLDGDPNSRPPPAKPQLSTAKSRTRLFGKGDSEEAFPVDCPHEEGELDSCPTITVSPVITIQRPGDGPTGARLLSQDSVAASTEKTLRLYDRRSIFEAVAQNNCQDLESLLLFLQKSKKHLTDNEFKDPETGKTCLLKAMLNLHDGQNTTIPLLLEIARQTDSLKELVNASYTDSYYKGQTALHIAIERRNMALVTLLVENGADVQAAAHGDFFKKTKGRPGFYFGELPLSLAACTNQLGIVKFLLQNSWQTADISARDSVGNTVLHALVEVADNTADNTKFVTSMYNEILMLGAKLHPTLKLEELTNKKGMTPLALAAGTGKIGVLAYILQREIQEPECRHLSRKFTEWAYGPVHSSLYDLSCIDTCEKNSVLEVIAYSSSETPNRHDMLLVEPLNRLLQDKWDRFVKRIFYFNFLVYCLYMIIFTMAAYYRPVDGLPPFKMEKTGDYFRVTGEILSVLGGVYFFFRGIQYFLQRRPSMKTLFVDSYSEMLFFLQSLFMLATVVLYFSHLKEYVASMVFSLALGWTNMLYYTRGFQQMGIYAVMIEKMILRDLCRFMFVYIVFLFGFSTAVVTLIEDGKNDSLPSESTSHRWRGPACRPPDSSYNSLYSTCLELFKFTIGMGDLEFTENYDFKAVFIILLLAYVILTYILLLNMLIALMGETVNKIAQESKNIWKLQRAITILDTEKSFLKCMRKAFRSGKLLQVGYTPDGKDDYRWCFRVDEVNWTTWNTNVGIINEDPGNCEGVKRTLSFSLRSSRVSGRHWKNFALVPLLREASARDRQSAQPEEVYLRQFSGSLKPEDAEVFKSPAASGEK
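Fluo-8 calcium influx in TRPV1-expressing cells, kinetic read (ex 480/em 520 nm). Compound added and read 3 min for agonist activity, followed by capsaicin at EC20 final and 2 min further read for enhancement.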
Menin-MLL FL inh: displaces fluorescein MLL peptide from human menin | Fluorescence polarization, fluorescein-MLL peptide displacement from menin | FP activity change, % at 61.4 µM | 290,000 tested, under 10 active; inconclusive = falling polarisation curve, or a change in total fluorescence; inactive = total fluorescence flat and polarisation flat or rising; no compound was filed as active; the % refers to the polarisation; negative = inhibition;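 note: % of control where 0% means no effect; inhibitors lower the polarisation; unlabelled MLL peptide was the positive control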
D2 PAM: human D2 receptor positive allosteric modulation | DiscoveRx D2 beta-arrestin cells, luminescence, 90 min; 100% = 57 uM dopamine signal | AID 624464 | potentiation, % (concentration not given with the values) | actives 0.23% (n = 360,000) | P14416; active = potentiation of 50% or more; inconclusive = 30% to 50%; inactive = 30% or less;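 note: compound concentration not given in the record; tested on top of an EC20 dose of dopamine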
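PathHunter D2 cells, attached overnight at 37 deg C, received compound in DMSO plus dopamine at EC20 (50 nM final) for 90 min at 37 deg C. Beta-arrestin recruitment was read as luminescence after 1 h with detection reagent at ambient temperature.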
Sfp PPTase inh: blocks B. subtilis Sfp PPTase activity | actives 3.5% (n = 310,000) | Potency, µM, inactives show max response, negative = inhibition, hits mostly inhibitors | Biochemical Sfp PPTase activity, qHTS; active = well fitted inhibition curve with a large enough effect; inconclusive = small, poorly fitted or top-dose-only effect, or another doubt; inactive = no such curve, though single readings can be large or run the other way;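 note: the enzyme is Sfp with the accession as filed and its product quenches rhodamine fluorescence; potency is the fitted concentration of half-maximal effect; 0% = enzyme reaction without inhibitor and -100% = no enzyme wells; top concentration of the series not given in the record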
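Fluorescence-quenching assay: 15 nM Sfp-PPTase preincubated 15 min at room temperature with compound, then 5 uM rhodamine-CoA and 12.5 uM BHQ-2-labelled YbbR peptide added. Fluorescence (ex 525/em 598 nm) read at start and after 30 min; difference gives rate.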
Numbers without * were called inactive; u = inconclusive; x = not tested or not shown; [ ] = dose if it differs, or a comment.

Screens in order – gsp antag	ClpP mod	gsp ag	TRPV1 PAM	Menin-MLL FL inh	D2 PAM	Sfp PPTase inh
O=C(Nc1ncc2c(n1)CC(c1ccco1)CC2=O)c1ccc(Cl)cc1 (stereo unspecified)
→ 1%	-2.6%	-13%	-7	u	8	-27%
O=C(CNC(=O)c1cccs1)NCC(=O)OCC(=O)c1ccccc1
→ -1%	x	-17%[15.4 µM]	0	1.3	-5	15%
CCc1nnc(NC(=O)c2ccc(-c3ccccc3Cl)o2)s1
→ 7%	19%	3%	18	4.2	-5	-1%
CCOC(=O)N1CCN(S(=O)(=O)c2cc(Cl)ccc2Cl)CC1
→ -2%	-0.9%	24%	-4	1.5	5	6%
CCn1c(SCC(=O)Nc2sc(C)c(C)c2C#N)nnc1C1CC1
→ u	-0.3%	-26%	-3	11	-3	-21%
COc1ccc(CNS(=O)(=O)c2ccc(-c3cc(C)no3)cc2)cc1
→ -2%	-2.2%	2%	u	x	-3	-4%
O=C(c1ccco1)N1CCCSC1=Nc1ccccc1
→ 2%	0.4%	-28%	-1	3.3	-5	22%
COc1ccc(Br)cc1/C=N/Nc1ccc(S(=O)(=O)Nc2ccccc2C(=O)O)cc1[N+](=O)[O-]
→ -9%	138%	-5%	x	x	5	x
COc1cccc(NC(=O)Nc2cc(C)ccc2OC)c1
→ -23%	x	6%	-7	-1.4	-21	9%
O=C(CCn1c(=O)c2cccn2c2cccnc21)NCCCN1CCN(c2ccc(F)cc2)CC1
→ x	u	7%	x	x	-27	x
O=C(Cn1ncc2c([nH]c3ccccc32)c1=O)N1CCN(c2ccccc2F)CC1
→ 7%	-3.4%	10%	6	7.9	-6	17%
Cn1c(-c2ccc3ccccc3n2)nc2cnccc21
→ 3%[15.4 µM]	1.4%	-5%	7	0.3	-12	19%
Cn1cc(Cl)c(C(=O)OCC(=O)c2ccccc2)n1
→ 10%	x	18%[15.4 µM]	-23	1.0	1	7%
O=C(CNCc1cccnc1)Nc1cc(C(F)(F)F)ccc1N1CCOCC1
→ -10%	-5.6%	u	-7	-1.2	-15	56µM*
Cc1ccc2cccc(NS(=O)(=O)c3ccccc3)c2n1
→ -8%	u	6%[15.4 µM]	-17	x	-2	-3%

Continuation:
Screens in order – gsp antag	ClpP mod	gsp ag	TRPV1 PAM	Menin-MLL FL inh	D2 PAM	Sfp PPTase inh
O=C1CC(c2ccc(Br)cc2)NC(c2ccc(Br)cc2)C1c1ccccc1 (stereo unspecified)
→ x	x	x	-1	3.5	x	6%
CCOC(=O)C1CCN(Cc2cnc(NC(=O)OC)s2)CC1
→ 0%	0.3%	-43%[inhibitor]	-11	4.1	-21	15%
COc1cccc(NC(=O)c2ccc(NC(=O)C3CC(=O)OC34CCCCC4)cc2)c1 (stereo unspecified)
→ -26%	1.0%	-18%	18	6.1	3	1%
O=C(NC1CCCC1)C1CCCN(S(=O)(=O)c2cnc[nH]2)C1 (stereo unspecified)
→ 6%	0.3%	8%	-2	-0.3	-9	-1%
Cc1ccc(NC(=O)CCSc2nnc(C)o2)cc1
→ 8%	0.5%	-3%	10	3.5	-4	20%
CSc1ncccc1C(=O)OCC(=O)c1ccc[nH]1
→ 7%	-0.8%	7%	x	x	-5	x
CCc1ccc(C(=O)NNC(=O)CCC2CCCCC2)cc1
→ 6%	x	1%[15.4 µM]	-2	-0.1	1	11%
COc1ccc(CNC(=O)Nc2cccc3ccccc23)cc1
→ -2%	32µM*	24%	-15	4.5	-22	u
COc1ccc(-c2nn(-c3ccccc3)cc2/C=C/C(=O)N(C)CC(=O)Nc2cccc(F)c2)cc1OC
→ -35%	4.1%	-35%[inhibitor]	x	x	-1	x
COc1ccc(NC(=O)CN2CCN(CC(=O)Nc3ccccc3OC)CC2)c(OC)c1
→ -9%	-0.2%	23%	21	5.3	-2	10%
O=C(Cc1noc2ccccc12)Nc1ccc2ccccc2c1
→ -2%	-0.5%	u	-6	-6.4	-13	-1%
COc1cc(SC)ccc1C(=O)OCC(=O)NC1CCCC1
→ -7%	x	u	3	-3.0	-1	24%
CN(C)CC(O)CN1C(=O)N(CN2C(=O)N(CC(O)CN(C)C)C(=O)C2(C)C)C(C)(C)C1=O (stereo unspecified)
→ 5%	x	1%[15.4 µM]	-1	4.2	1	15%
COC(=O)c1c(-c2cccnc2)csc1NC(=O)c1cc(C)on1
→ -18%	-2.3%	17%	-14	u	-4	-66%
Cc1cc(NC(=O)CSc2ccc(-c3nc4cc(C)c(C)cc4[nH]3)cn2)no1
→ 0%	u	u	0	0.2	3	8%

New compounds follow.
Screens in order – gsp antag	ClpP mod	gsp ag	TRPV1 PAM	Menin-MLL FL inh	D2 PAM	Sfp PPTase inh
CCc1ccccc1NC(=O)C1CC(c2ccc(OC)cc2)=NO1 (stereo unspecified)
→ 6%	0.7%	14%	-4	-0.3	-5	9%
CCOc1ccc(CN(C)CC(=O)Nc2ccc([N+](=O)[O-])cc2Cl)cc1
→ -16%	-2.1%	u	-2	-0.4	-17	-22%
CCc1nnc(NC(=O)CN2CCN(C(=O)c3ccccc3)CC2)s1
→ 0%	x	10%[15.4 µM]	8	-0.4	6	7%
CCC(C(=O)Nc1cc(C(=O)Nc2cc(C)ccn2)ccc1Cl)c1ccccc1 (stereo unspecified)
→ 6%	-1.6%	-14%	-7	5.6	-14	3%
CCN(Cc1ccccc1)S(=O)(=O)CCNC(=O)c1ccccc1
→ 8%	-1.9%	4%	0	x	-9	x
COc1ccc(NS(=O)(=O)c2cc(C(=O)N3CCN(C(C)=O)CC3)ccc2Cl)cc1
→ -3%	x	-16%	9	-0.2	-1	7%
CC1(C)CC(=O)C(C=Nc2ccc(NC3=C(C#N)C(=O)CC(C)(C)C3)cc2)=C(O)C1
→ -5%	x	-7%	0	-0.4	-7	8%
COc1ccc(-c2nc(NC(=O)c3ccccc3)sc2-c2ccc([N+](=O)[O-])cc2)cc1
→ -3%	1.0%	-19%	-12	1.2	-13	12%
[O-]/C(=C(\C(=S)Nc1ccc(Cl)cc1)[n+]1ccccc1)c1ccc(OC(F)F)cc1
→ 2%	-2.4%	-20%	u	-2.0	-4	50µM*
CCC/C=C1/CCCOC(C(=O)NCc2cc(C)n(C)n2)(C(F)(F)F)C1 (stereo unspecified)
→ -1%	-2.2%	-37%[inhibitor]	x	-4.9	-13	17%
CCc1c(C)[nH]c(C(=O)OCc2ccccc2)c1C
→ 13%	-2.7%	-32%[inhibitor]	25	-4.5	-3	-2%
O=C(O)c1cccc(S(=O)(=O)N2CCN(C(c3ccccc3)c3ccccc3)CC2)c1
→ -3%	x	u	-4	-1.5	-4	6%
COC1C(OC(=O)/C=C/C=C/C=C/C=C/C(=O)O)CCC2(CO2)C1C1(C)OC1CC=C(C)C (stereo unspecified) (tested in a mixture with another compound)
→ 1%	-0.7%	14%	x	x	-14	x
Cc1ccc(NC(=O)COC(=O)c2ccc(-n3cccn3)cc2)cc1C
→ 5%	10%	-43%[inhibitor]	-13	x	-3	x
CCNc1ncnc2[nH]ncc12
→ 6%	x	5%	x	x	-6	x

Sorted by value in Menin-MLL FL inh (lowest first): 5 of the compounds above
structure	gsp ag	Menin-MLL FL inh	D2 PAM	Sfp PPTase inh
O=C(O)c1cccc(S(=O)(=O)N2CCN(C(c3ccccc3)c3ccccc3)CC2)c1	u	-1.5	-4	6%
CCc1nnc(NC(=O)CN2CCN(C(=O)c3ccccc3)CC2)s1	10%[15.4 µM]	-0.4	6	7%
Cn1c(-c2ccc3ccccc3n2)nc2cnccc21	-5%	0.3	-12	19%
COc1ccc(-c2nc(NC(=O)c3ccccc3)sc2-c2ccc([N+](=O)[O-])cc2)cc1	-19%	1.2	-13	12%
COc1ccc(NC(=O)CN2CCN(CC(=O)Nc3ccccc3OC)CC2)c(OC)c1	23%	5.3	-2	10%

Continued:
Screens in order – gsp antag	ClpP mod	gsp ag	TRPV1 PAM	Menin-MLL FL inh	D2 PAM	Sfp PPTase inh
COc1ccccc1CN=c1c([N+](=O)[O-])nn(-c2ccc3c(c2)OCCO3)n1O
→ 2%	-8.4%	9%[15.4 µM]	5	2.9	129*	5%
Cc1ccc(/C=C/C(=O)NC2=NCCS2)cc1
→ 9%	-0.8%	-17%	-13	0.2	-1	9%
Nc1ccc2sc(N)nc2c1
→ 2%	-0.5%	x	2	x	-1	x
COC(=O)CSc1nnc(-c2cccs2)n1-c1ccc(Cl)cc1
→ -30%	-4.5%	7%	2	4.2	-10	23%
CCc1c(Cl)nc(N)nc1Nc1ccccc1Cl
→ -22%	1.5%	-2%[15.4 µM]	x	x	-27	x
CC(C)CCN1C(=O)C2(OCCCO2)c2cc(Cl)ccc21
→ u	-3.3%	9%[15.4 µM]	-20	1.6	-21	-4%
O=C(N/N=C/c1cc([N+](=O)[O-])ccc1Cl)c1cc(-c2ccccc2)nc2ccccc12
→ u	-2.5%	-29%	10	-2.3	-5	-20%
Cc1nc2ncnn2c(N2CCN(C(c3ccccc3)c3ccccc3)CC2)c1C
→ -36%	-0.6%	1%	-24	-1.1	-14	79µM*
CCOC(=O)C1=C(C)NC2=C(C(=O)CC(c3ccc(OC)c(OC)c3)C2)C1c1ccc(C)o1 (stereo unspecified)
→ -19%	u	-26%	-3	-0.5	1	-6%
O=C(NC(Cc1ccccc1)C(=O)O)C1CCCCC1 (stereo unspecified)
→ 15%	1.3%	-2%	20	5.2	-2	6%
CC(=O)Nc1ccc(S(=O)(=O)N2CCN(C(=O)c3ncoc3-c3ccccc3C)CC2)cc1
→ x	x	14%[15.4 µM]	6	0.2	-23	17%
CCOC(=O)C1(CC)NC(c2ccco2)C2C(=O)N(c3ccc(C)cc3)C(=O)C21 (stereo unspecified)
→ -11%	-3.2%	6%	3	3.3	-16	-9%
Cn1c(=O)c(C(=O)COC(=O)c2cc(-c3ccco3)nc3ccccc23)c(N)n(Cc2ccccc2)c1=O
→ x	x	x	4	u	x	32µM*

Look-ups from above.
Under TRPV1 PAM, `O=C(N/N=C/c1cc([N+](=O)[O-])ccc1Cl)c1cc(-c2ccccc2)nc2ccccc12` has 10
Under Sfp PPTase inh, `Cc1ccc(/C=C/C(=O)NC2=NCCS2)cc1` has 9%
